Biofilm kill mix: mixtures killing C. albicans biofilm. C. albicans biofilm persisters + clotrimazole, fluorescence viability; primary screen in compound mixtures of four per well. inhibition, % at 7.6 µM. actives 0.02% (n = 120,000);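 active = inhibition above 30.3% in the primary screen of four-compound pools, then above 30% when the compound was retested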;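 note: compounds exposed to preformed 24 h biofilms for 48 h; the number belongs to the whole pool; some results filed as inactive read as strong as hits; inactives centre near 12; 0% = biofilm with clotrimazole alone and 100% = kill control; retested singly at about 60 µM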
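Test system: C. albicans CAF4-2 wild-type biofilms; buffer or medium: RPMI/MOPS medium, pH 7.0; schedule: 24 h biofilm formation, then 48 h compound exposure, 37 °C; detection: Alamar Blue fluorescence; measure: percent inhibition of biofilm viability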
Starred values were filed as active, the others as inactive. The list is partial, so the mix of outcomes need not match the whole.

SMILES	Biofilm kill mix
C=CCN=C1NN=C(c2ccc3c(c2)OCCO3)CS1	8.0
O=C(N/N=C/c1cccc(OCc2ccccc2)c1)c1ccc(Br)cc1	6.8
CCN(CC)S(=O)(=O)c1cccc(NC(=O)CCNC(=O)c2ccc([N+](=O)[O-])cc2)c1	16.6
CCOC(=O)C1=C(C)Nc2nc3ccccc3n2C1c1ccc(O)cc1 (stereo not drawn)	6.5
COC(C[C@@H](O)C[C@@H](O)COCc1ccccc1)OC	19.2
CCNC(=O)Cn1cc(C#N)c2ccccc21	11.1
C/C(=N\NS(=O)(=O)c1ccc([N+](=O)[O-])cc1)c1cccs1	7.8
COc1ccc(NC(=O)c2sccc2OS(=O)(=O)N(C)C)cc1	10.4
O=C(/C=C/c1ccccc1)NCC(=O)N/N=C\c1cccnc1	12.3
CCOc1ccc(Nc2cc(C)nc3nc(C)nn23)cc1	3.1
Fc1ccccc1-c1nc2ccccc2[nH]1	26.8
CN(C)/C=N/c1cc(=O)n(Cc2ccccc2)c(=O)n1C	8.4
CC1C/C(=C/c2ccccn2)C(=O)/C(=C/c2ccccn2)C1 (stereo not drawn)	7.0
CN(C)CCCOc1cccc(Cl)c1	8.5
Cc1ccc(NC(=O)c2c(C(=O)Nc3ccccc3)sc3nc(C)cc(=O)n23)cc1	11.1
O=C(c1ccccc1[N+](=O)[O-])N1CC2C3C=CC(C3)C2C1 (stereo not drawn)	17.3
O=C(NCc1ccco1)/C(=C\C=C\c1ccccc1)NC(=O)c1ccccc1Br	9.7
Cc1ccc(C)c(SCC(=O)OC/C(O)=C(\C#N)c2nc3ccccc3[nH]2)c1	18.6
COC(=O)C1C(=O)C2=C(CC1C)Nc1ccccc1NC2c1ccc(C)s1 (stereo not drawn)	30.6
Cc1cc([N+](=O)[O-])nn1CCCC(=O)Nc1cc(Oc2ccccc2)cc([N+](=O)[O-])c1	8.7
COc1ccc(-c2cc(=O)c3cc(O)ccc3o2)cc1	10.7
COc1ccc(N=C(C)c2sc3ccccc3c2O)cc1	24.2
O=c1c2ccccc2ncn1CCOCCOc1cccc(Br)c1	18.6
O=C(N/N=C/c1cc2ccccc2[nH]1)c1ccccc1Cl	17.8
COc1cc(/C=C2\SC(=Nc3ccc(N4CCOCC4)cc3)N(C)C2=O)ccc1OC(C)C(=O)O (stereo not drawn)	15.9
COc1ccc(NC(=O)CO/N=C2/CCCc3nonc32)c(OC)c1	8.0
COCCCn1c(=O)/c(=C\c2ccc(OC(F)F)c(OC)c2)s/c1=C(/C#N)C(=O)NCCOC	12.3
Cc1ccc(C(=O)OCC(=O)NC(C)C)cc1S(=O)(=O)N1CCOCC1	-15.1
COc1ccc(OC)c(CCNC(=O)CSc2ccsc2[N+](=O)[O-])c1	12.2
CC(C)(C)OC(=O)NC(=NCCCc1cn(CC(=O)N2CCN(C(=O)OC(C)(C)C)CC2)nn1)NC(=O)OC(C)(C)C	13.5

Molecules listed so far that contain two or more sulfur atoms, in the order listed:
SMILES	Biofilm kill mix
C/C(=N\NS(=O)(=O)c1ccc([N+](=O)[O-])cc1)c1cccs1	7.8
COc1ccc(NC(=O)c2sccc2OS(=O)(=O)N(C)C)cc1	10.4
COc1ccc(OC)c(CCNC(=O)CSc2ccsc2[N+](=O)[O-])c1	12.2

(more compounds)
SMILES	Biofilm kill mix
NC(=S)N/N=C/c1coc2ccc(Br)cc2c1=O	23.8
Cc1ccc(SCCn2nc(C(=O)O)c3ccccc3c2=O)cc1	3.9
C/C(=N\NC(=O)c1ccc(-c2ccccc2)cc1)C1C(=O)c2ccccc2C1=O	9.6
CCOc1ccc(NC(=O)CSc2nc3ccccc3c(=O)n2CCCC(=O)NCCCN2CCCC2=O)cc1	18.2
CSc1nnc(C)c(=O)n1COC(=O)COc1ccc(Cl)cc1	6.5
CCOC(=O)C[n+]1c(C)csc1C	7.0
O=C(NCCC1=CCCCC1)C1CCN(S(=O)(=O)N2CCCC2)CC1	3.8
COc1cc(O)c(C(CCN2CCCC2)c2cc(OC)c(OC)c(OC)c2)c(OC)c1 (stereo not drawn)	15.8
C/C(CCC(=O)OC[C@H]1O[C@H](C#Cc2ccccc2)C=C[C@@H]1Oc1ccc(C)cc1)=N\OC[C@@H](O)[C@H]1O[C@@H]2OC(C)(C)O[C@@H]2[C@H]1O	20.4
O=c1cc(-c2ccc(O)cc2)oc2c(C3OCC(O)C(O)C3O)c(O)c(C3OC(CO)C(O)C(O)C3O)c(O)c12 (stereo not drawn)	18.9
O=C(COC(=O)Cc1cccc(C(F)(F)F)c1)NC1CC1	10.5
CN1C(=O)C(CC(=O)Nc2ccc(F)cc2)N(NC(=O)c2cccc(F)c2)C1=S (stereo not drawn)	26.8
CC[n+]1c(/C=C2\Sc3ccccc3N2C)ccc2cccc(C)c21	20.5
Nc1ccc2c(c1)C/C(=C/c1ccco1)C2=O	5.6
CN(C)S(=O)(=O)c1ccc2nnn(O)c2c1	1.5
C/C(=N\NC(=O)c1ccc(CN2CCOCC2)cc1)c1ccc(NC(=O)c2ccccc2)cc1	8.0
COCCNC(=O)c1ccc2c3n(nc2c1)-c1ccc(Cl)cc1CO3	16.6
O=C(N=Nc1c(O)[nH]c2ccccc12)c1cc(NS(=O)(=O)c2cccs2)cc(NS(=O)(=O)c2cccs2)c1	9.4
CC(=O)Nc1c(NC(=O)CC#N)[nH]c2c(c1=O)c(=O)n(C)c(=O)n2C	20.2
COc1ccccc1/C=C(/C(=O)NCCCn1ccnc1)c1ccccc1	7.6
COCCCNC(=O)c1ccc2c(=O)n(Cc3ccc(OC)cc3)c(=O)[nH]c2c1	7.0
COc1ccc(F)cc1C(=O)C1CCCN(C(=O)c2cccc(N(C)C)c2)C1 (stereo not drawn)	12.3
Cc1ccccc1-n1nnnc1SCCCC(=O)c1ccc(F)cc1	8.1
CCOC(=O)c1sc(-c2cccc([N+](=O)[O-])c2)cc1N	14.0
Cc1cccc(-n2c(=O)c3c4c(sc3n3c(=S)[nH]nc23)CCC4)c1	8.5
CCCOc1ccc(CN(CCO)CCO)cc1[N+](=O)[O-]	14.0
Cc1ccc(S(=O)(=O)NC(CC(C)C)C(=O)N2CCC(C)CC2)cc1 (stereo not drawn)	14.1
COc1cccc(CNC23CC4CC(CC(C4)C2)C3)c1OCc1ccccc1	11.0
CCc1ccc(OCc2nnc(SCC(=O)N3CCOCC3)o2)cc1	28.1
CNC(=O)C(NC(=O)Nc1ccc(C)cc1)C(C)(C)C (stereo not drawn)	5.1
Fc1ccc(NC(=S)NCc2ccc3c(c2)OCO3)cc1	-0.1
CC(Sc1nc2ccccc2s1)C(=O)NC1CCCc2ccccc21 (stereo not drawn)	9.9
COc1ccc(Br)cc1S(=O)(=O)NCCN1CCOCC1	10.0
CCCC(C)C(=O)Nc1ccncc1 (stereo not drawn)	10.3
COc1ccc(-c2cc(C(F)(F)F)n3nc(C(=O)NCCCN4CCOCC4)cc3n2)cc1	7.4
CCc1cc2c(=O)[nH]c(N3CCOCC3)nc2s1	13.0
CCCCNS(=O)(=O)c1ccc2nc(-c3cccs3)cc(C(=O)NCC(OC)OC)c2c1	18.3
CC(C)(CCl)C(=O)Nc1ccc(C(F)(F)F)cc1	3.8
CSC(=S)N(C)C1CCS(=O)(=O)C1 (stereo not drawn)	7.6
O=C(c1cccnc1)N1N=C2CCCCCC2C1(O)C(F)(F)F (stereo not drawn)	3.0
COCCN(C(=O)/C=C/c1cccc([N+](=O)[O-])c1)c1c(N)n(Cc2ccccc2)c(=O)[nH]c1=O	12.1
Cc1cccc(NC(=O)c2cnn(C)c2)c1C	8.1
CSc1ccc(S(=O)(=O)N(CC(=O)NN=C2CCN(C)CC2)c2ccc(C)cc2)cc1	11.4
Cc1nn(Cc2cccc(C(=O)N3CCCC(C)C3)c2)c(C)c1[N+](=O)[O-] (stereo not drawn)	6.8
O=C(NC1CC1)C1CCN(C2CCN(C(=O)/C=C/c3ccc(F)cc3)CC2)CC1	4.2
CCn1c(C)c(C2=CCN(S(=O)(=O)c3ccccc3)CC2)c2ccccc21	6.7
O=C(Nc1ccc(N2CCCC2)c(Cl)c1)c1ccc([N+](=O)[O-])o1	9.7
COc1ccc(Cl)cc1NC(=O)CNc1ccccc1F	0.0
Cc1c2c(=O)n(-c3nc4ccccc4s3)nc-2cc(O)n1Cc1ccccc1	0.5
NC(=S)Cc1nc(-c2ccc(Cl)cc2)cs1	16.5
O=C(CC(C(=O)NCc1ccccc1)c1nc2ccccc2c(=O)[nH]1)NCc1ccccc1 (stereo not drawn)	15.1
O=C(CCCC(=O)NNC(=O)Nc1ccccc1)NNC(=O)Nc1ccccc1	6.9
O=C(N/N=C/C(Cl)=C/c1ccccc1)c1ccco1	19.6
O=C(O)CN1CCc2ccccc2C1	9.3
CC(C)(C)CC(C)(C)N1CNC(=S)NC1	20.3
CC(C)c1ccc(NC(=O)C(=O)c2cn(CC(=O)N3CCCCC3)c3ccccc23)cc1	9.4
COc1ccc(Sc2nc(-c3ccccc3)ncc2OC)cc1	6.6
CC(=O)c1ccc(N2CCN(C(=O)CCC(=O)c3cccs3)CC2)cc1	7.5
Cc1ccc(/C=C/C(=O)OC(C)C(=O)Nc2ncc(Cl)cc2Cl)o1 (stereo not drawn)	12.5
CCc1ccc(NC(=O)C2C3/C=C\CCCCC32)cc1 (stereo not drawn)	17.5
Following part
SMILES	Biofilm kill mix
COc1ccc(-c2csc(NC(=S)NC(=O)c3cccs3)n2)cc1OC	2.6
O=C(O)C1CCC(Cn2c(SCc3cc(=O)n4ccccc4n3)nc3ccsc3c2=O)CC1 (stereo not drawn)	13.9
COc1cccc(NC(=O)C(Sc2nnc(Nc3ccccc3C)s2)c2ccccc2)c1 (stereo not drawn)	11.6
CC1=Nc2ccccc2N=C(N)C1c1ccccc1 (stereo not drawn)	5.5
O=C1CCCN1CCCNS(=O)(=O)c1ccc(Br)cc1	-3.9
Cc1ccc(Cl)cc1NC(=O)C(=O)N1CCCCC1	6.9
CCOC(=O)C[n+]1c(C)ccc2c1CCC2	8.3
CCN(C1=NS(=O)(=O)c2ccccc21)N(CC)S(=O)(=O)c1ccc(C)cc1	12.5
O=C(CNC(=S)N(Cc1ccccc1)Cc1cccnc1)N1CCOCC1	6.5
CC(C)(C)CC(=O)NCCCN1CCOCC1	1.6
N#CCCn1cc(/C=N/NC(N)=S)c(-c2ccc(-c3ccccc3)cc2)n1	6.9
O=C(COC(=O)Cc1ccsc1)NCc1ccccc1	8.3
O=C(Cn1cnc2ccccc21)N/N=C/c1ccccc1	10.1
CC(=O)NS(=O)(=O)c1ccc(NC(=O)CSc2ccc(Cl)cc2)cc1	7.8
Cc1cccc(C)c1NC(=S)NCCCN1CCCC1=O	16.1
Cc1cccc(/N=C2/NC(=O)C(Cc3ccccc3)S2)n1 (stereo not drawn)	21.3
O=C(C1CCCCC1)N1CCC(c2nc3c(nnn3Cc3c(F)cccc3Cl)c(=O)[nH]2)CC1	19.4
C/C(=N\NC(=O)c1ccc(C)cc1C)c1ccc2c(c1)Nc1ccccc1S2	10.5
CCN(CC)C(=O)Cn1cnc2sc(C(=O)N3CCN(c4ccc(F)cc4)CC3)c(C)c2c1=O	13.3
O=C(CCCC(=O)OCC(Cl)=C(Cl)Cl)Nc1ccc(F)cc1	9.1
CC(C)n1c(O)c(N=NC(=O)Cc2csc(N3CCOCC3)n2)c2ccccc21	-1.3
Cc1cs/c(=N\N=C\c2cccc([N+](=O)[O-])c2)n1Cc1ccco1	21.8
O=C(CNS(=O)(=O)N1CCOCC1)N/N=C/c1cccnc1	16.6
COc1cc(/C=C(\C#N)c2nc3ccccc3n2C)cc(OC)c1O	12.6
COc1cccc(Cn2cccc(NC(=O)Nc3ccccc3C)c2=O)c1	12.1
CSCCC(NC(=O)/C(=C/c1ccc2c(c1)OCO2)NC(=O)c1cccc([N+](=O)[O-])c1)C(=O)O (stereo not drawn)	10.1
COc1ccc(NC(=O)CN(C)CC(=O)Nc2cccc(F)c2)cc1Cl	15.5
COc1cc(C(=O)N(c2ccc(C)c(C)c2)C2C=CS(=O)(=O)C2)cc(OC)c1OC (stereo not drawn)	15.7
O=C(COC(=O)Cc1ccc(Cl)cc1)Nc1ccc(OC(F)F)cc1	12.1
CCOc1ccc(S(=O)(=O)N2CCN(C(=O)c3cc4c(s3)CCCC4)CC2)cc1	8.4

In the list so far, these have bromine:
SMILES	Biofilm kill mix
O=C(N/N=C/c1cccc(OCc2ccccc2)c1)c1ccc(Br)cc1	6.8
O=C(NCc1ccco1)/C(=C\C=C\c1ccccc1)NC(=O)c1ccccc1Br	9.7
O=c1c2ccccc2ncn1CCOCCOc1cccc(Br)c1	18.6
NC(=S)N/N=C/c1coc2ccc(Br)cc2c1=O	23.8
COc1ccc(Br)cc1S(=O)(=O)NCCN1CCOCC1	10.0
O=C1CCCN1CCCNS(=O)(=O)c1ccc(Br)cc1	-3.9

Further records:
SMILES	Biofilm kill mix
COc1ccc2[nH]c3c(C)c4ccncc4c(C)c3c2c1	17.0
CC(C)N1CCN(Cc2ccc3c(c2)Cc2ccccc2-3)CC1CCO (stereo not drawn)	1.2
Cc1nn2c(COc3ccc(NC(=O)c4ccccc4Cl)cc3)nnc2c2ccccc12	15.0
Cc1ccc(/C=N/Nc2cn[nH]c(=O)n2)o1	10.3
O=C(CCN1CCCCC1)N/N=C/c1c[nH]c2ccccc12	14.6
N#C/C(=C/c1ccc(CNS(=O)(=O)c2ccccc2)o1)C(N)=O	18.2
Oc1ccccc1-c1cc(C(F)(F)F)nc(-c2ccccc2)n1	3.2
O=S(=O)(/N=C(/c1ccc(F)cc1)N1CCCCC1)c1ccc(Cl)cc1	-0.5
CCn1c(/C=N/Nc2ccc(C(=O)O)cc2)nc2ccccc21	4.8
O=C(NC1CC1)c1ccc(C2SCC(=O)N2Cc2ccccc2)cc1 (stereo not drawn)	12.0
CCN(CC)S(=O)(=O)c1cccc(NC(=O)/C=C/c2ccc([N+](=O)[O-])cc2)c1	8.8
Cc1ccc(C(=O)NCCc2nnc3ccc(SCC(=O)Nc4ccccc4C)nn23)cc1	4.5
